Screening data deposited in PubChem BioAssay by several laboratories.
HIV Env fusion: blocks HIV Env-driven cell-cell fusion | HeLa-JRFL Env/CEM21 cell fusion, luciferase | inhibition, % at 12.3 µM | 360,000 compounds, 1.1% hits;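 active = mean replicate inhibition score of at least 50 and every replicate individually at or above 50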;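 also: 0% = plate neutral controls and 100% = maraviroc near 300 nM; one replicate is shown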
MT1-MMP act inh: MT1-MMP (human) activation inhibition; HT1080 RFP-PRO-GFP cells, GFP/RFP ratio fluorescence, overnight; percent of plate control window, DMSO zero; GFP/RFP ratio change, % at 20 µM; 360,000 compounds, 0.061% hits; AID 651647;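 active = GFP/RFP ratio change of at least 30% with cell ATP level not reduced by more than half and red fluorescence within 50% of control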; also: strong numbers were not always called active
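Material – HT1080 RFP-PRO-GFP cells · Control set – DMSO wells and RFP-L50D-GFP cells · Incubation – overnight cell settling, then overnight compound exposure, 37 °C, 5% CO2 · Compound dosing – single-point 20 µM compound, 1% DMSO · Read-out – GFP/RFP fluorescence ratio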
MT1-MMP act inh RFP: further read-out of MT1-MMP act inh, marked with its call; RFP signal change, %; measured here: RFP expression control read;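 0 = vehicle wells; hits needed this value within 50% of zero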
* hit, by the source's call; i = inactive. Some of the compounds tested; rates above refer to the full screens.

SMILES	HIV Env fusion	MT1-MMP act inh	MT1-MMP act inh RFP
O=c1[nH]c(=S)[nH]c2c1C(C1CCCCC1)OC(C1CCCCC1)C2 (stereo unspecified)	20	-4	-15
C1CCc2c(c(N3CCOCC3)nc3sc4c(N5CCOCC5)nnnc4c23)C1	-7	-1	-2
CCCCCc1c(Cc2ccccc2)ncn1CCc1ccccc1OC	109*	3	-32
CN1CCN2c3ccccc3CC(C#N)(C#N)C2C1 (stereo unspecified)	6	-2	7
CCCCN1CC(C)(C)[C@H](CC(=O)Nc2ccc(Br)cc2)C1=O	26	-1	-9
CCCCNc1nc(NCc2ccccc2)nc2ccccc12	-13	0	-17
CN(Cc1ccccc1)C(=O)[C@@H]1CCCN1C(=O)[C@@H]1CCCN1C(=O)c1cccs1	3	1	7
O=C(NC1CCCCC1)C1c2ccccc2OCC(=O)N1Cc1ccccn1 (stereo unspecified)	-8	3	6
CC1(C(=O)Nc2cccc(Oc3ccccc3)c2)CCN1Cc1ccccc1OC(F)F (stereo unspecified)	28	-12	-23
Cc1ccccc1S(=O)(=O)NC(=O)C1(C)CCN1C(=O)CC1CCCCC1 (stereo unspecified)	-2	6	7
COC(=O)[C@@]1(Cc2ccc(F)cc2)[C@H]2c3cc(C(=O)N4CCCC4)n(Cc4cc(F)cc5c4OCOC5)c3C[C@H]2CN1C(=O)c1ccccc1	1	-12	-22
CN(C)CCNCCCNc1c2ccccc2nc2cccc([N+](=O)[O-])c12	-4	-7	-9
Brc1cc2c(cc1C1OCCCO1)OCO2	-2	-3	-2
Cc1nn(-c2ccccc2)c(-c2ccccc2[N+](=O)[O-])c1CC#N	10	-2	4
CCOC(=O)/C=C1/SCC(=O)N1CCOc1cccc(Br)c1	-3	2	-5
O=c1cc(-c2ccc(O)c(O)c2)oc2ccc3ccccc3c12	i	7	-3
Nc1ncnc2c1ncn2C1OC(CO)C2OC21 (stereo unspecified)	-3	-1	4
Fc1ccc(CSc2ncnc3c2ncn3C2CCCCO2)cc1 (stereo unspecified)	-28	3	-5
O=C(Cc1ccc(S(=O)(=O)N2CCOCC2)s1)Nc1ccc(Br)c(C(F)(F)F)c1	-5	8	-7
CC(C)n1cc(C#N)c(N)n1	-8	5	2
COC(=O)[C@]12CCCCC=C1N(Cc1ccco1)C(=O)[C@H](CC(=O)NCCC(C)C)C2	-28	-2	0
COc1ccccc1COc1cccn2c(N(C)C(=O)CCC3CCCC3)c(C)nc12	-1	-14	-15
CCOC(=O)[C@]12CCCC=C1N(CCC1=CCCCC1)C(=O)[C@H](CC(=O)N1CCN(C(=O)C3CC3)CC1)C2	7	5	4
COc1ccc(CNc2cccnc2Cl)cc1	-28	7	-6
Cc1cc2nc(C(C)(C)C)c(CC3CCCCC3)n2c(C)c1Br	19	-3	-5
C#CCNC(=O)C[C@@H]1C[C@@]2(C(=O)OC)CCCCC=C2N(CCc2ccc(OC)c(OC)c2)C1=O	8	1	5
Cc1ccc(S(=O)(=O)NCC(=O)OCC(=O)N(CCC#N)c2ccccc2)cc1	11	2	4
COc1cc(OC)cc(C2=Cc3ccc(OC)cc3C(CC(C)=O)N2c2ccc(-c3cncnc3)cc2)c1 (stereo unspecified)	-24	-8	-5
CC(C)(C)NC(=O)C(c1ccc(C(F)(F)F)cc1)n1c(=O)c(-c2ccco2)nc2ccccc21 (stereo unspecified)	29	-11	4
O=C(NN=Cc1cc([N+](=O)[O-])ccc1O)c1cccc2ccccc12	12	4	-3
COc1cc(C2(C)SCCCS2)cc(OC)c1OC	20	5	-4
Cn1c(=O)c2[nH]c(CCCCCCCc3nc4ccccc4[nH]3)nc2n(C)c1=O	7	-3	-26
COC(=O)C1(C)CCc2c(ccc3ccccc23)C1=O (stereo unspecified)	-6	1	0
O=C1NC[C@H](CCCCN2C[C@H](Cc3ccccc3)N(CCc3ccc(O)cc3)C(=O)C2=O)N(CCc2ccc(O)cc2)C1=O	16	-3	3
O=C(Cc1ccccc1)c1ccc(N2CCOCC2)cc1	-17	-1	-2
O=c1[nH]c2cc([N+](=O)[O-])ccc2c2ccc([N+](=O)[O-])cc12	-34	0	-1
O=c1c(-c2ccco2)nc2ccccc2n1C(c1ccccc1)c1nc2ccccc2[nH]1 (stereo unspecified)	26	-6	1
CN(C)C1CN(Cc2cn(Cc3cccc(Cl)c3)nn2)S(=O)(=O)C1 (stereo unspecified)	6	5	7
COCCn1c2nc(=O)n(-c3ccccc3)c(=O)c-2nc2ccccc21	38	-104	0
CC(C)C[C@H]1COc2cc(N3CCC[C@@H]3CO)ccc2S(=O)(=O)N1	-24	3	-8
O=C(C(=O)N1CCN(c2ccccc2)CC1)c1ccncc1	-4	-1	2
CC(CCNC(=O)c1ccccc1)(CCNC(=O)c1ccccc1)[N+](=O)[O-]	6	2	1
COCOCCn1cc(CN2CCS(=O)(=O)N(Cc3ccc(-c4ccc(OC)cc4)cc3)C(C)C2=O)nn1 (stereo unspecified)	35	-4	-6
CC(C(=O)NCc1ccccc1)n1c(Cc2cc(F)cc(F)c2)nc2ccccc21 (stereo unspecified)	0	0	2
O=C1NC[C@@H](CCCCN2C[C@H](Cc3ccc(O)cc3)N(CCc3ccccc3)C(=O)C2=O)N(CCc2ccccc2)C1=O	4	4	3
COC[C@H]1CCCN1c1ccc2c(c1)O[C@@H](COCc1ccccc1)CN([C@H](C)c1ccccc1)S2(=O)=O	-7	1	-3
Cc1cccc(C)c1-n1nnnc1C1(C)CCC(=O)N1CCc1ccc(O)cc1 (stereo unspecified)	3	0	2
CCOC(=O)[C@]12CCCC=C1N(Cc1ccc3c(c1)OCO3)C(=O)[C@H](CC(=O)N1CCOCC1)C2	-51	4	0
CC(=O)Nc1ccc(CNc2nc3cc(-c4ccsc4)sc3c(=O)n2C)cc1	45	-1	-24
CC(C)c1cc(N=O)cc(C(C)C)c1O	-19	-2	-10
O=C(OCC12CC3CC(CC(C3)C1)C2)c1ccc(NCc2cc(O)ccc2O)cc1	-29	-34	-24
O=[N+]([O-])c1ccc(Cl)c(CN2CCN(c3ncc(Cc4ccccc4)cn3)CC2)c1	35	-2	-25
COc1ccc(CCNC(=O)C(F)(F)F)cc1S(N)(=O)=O	-6	-2	4
CCN(CC(=O)Nc1c(F)cccc1F)C(=O)c1c(-c2ccccc2Cl)noc1C	3	-4	4
CC(C)(CCC(=S)N1CCOCC1)c1ccccc1	-8	-6	3
CCCCn1nnnc1C(c1cc2ccccc2o1)N(C)Cc1ccc(Cl)cc1 (stereo unspecified)	3	-8	-19
COc1cc(OC)cc(C2=Cc3ccc(OC)cc3C(CC(C)=O)N2c2ccc(C#CC3(N)CCCCC3)cc2)c1 (stereo unspecified)	-12	-9	0
CCC(C)CN1C(=O)CN(S(C)(=O)=O)CC1(C)C(=O)NCc1ccccc1 (stereo unspecified)	-17	2	4
O=S1(=O)CC(N2CCCC2)CN1Cc1cn(Cc2ccc(F)cc2)nn1 (stereo unspecified)	4	3	7
CCCCCNC(=O)C(c1ccccc1)n1c(=O)c(-c2cc3ccccc3[nH]2)nc2ccccc21 (stereo unspecified)	17	-4	3

Filtered by structure, the compounds so far containing two or more sulfur atoms (3)
SMILES	HIV Env fusion	MT1-MMP act inh	MT1-MMP act inh RFP
O=C(Cc1ccc(S(=O)(=O)N2CCOCC2)s1)Nc1ccc(Br)c(C(F)(F)F)c1	-5	8	-7
COc1cc(C2(C)SCCCS2)cc(OC)c1OC	20	5	-4
CC(=O)Nc1ccc(CNc2nc3cc(-c4ccsc4)sc3c(=O)n2C)cc1	45	-1	-24

The list continues.
SMILES	HIV Env fusion	MT1-MMP act inh	MT1-MMP act inh RFP
O=C(CNC(=O)OCc1ccccc1)NCC(=O)Oc1ccc([N+](=O)[O-])cc1	21	-2	-1
COc1ccc(N2CCN(C(=O)C(=O)c3cccc([N+](=O)[O-])c3)CC2)cc1	9	1	1
O=C1[C@H]2[C@@H]3CCN1CCC[C@@H]2C=C[C@@H]3c1ccc(Br)cc1	-50	-1	-18
Cc1cccc(CN2CCN(C3CN(Cc4cn(Cc5cccc(C(F)(F)F)c5)nn4)S(=O)(=O)C3)CC2)c1 (stereo unspecified)	9	8	-10
Cc1ccc(S(=O)(=O)N2CCCN(C(=O)CNC(=O)c3ccccc3)CC2)cc1	-45	-6	-6
NC1=NC(=O)NC1(c1ccccc1)c1ccccc1	-34	-4	1
CCCNC(=O)C1(C)CCCN(Cc2ccccc2C#N)C1 (stereo unspecified)	-63	1	3
O=c1c(-c2cccnc2)nc2ccccc2n1C(CCc1ccccc1)c1nc2ccccc2[nH]1 (stereo unspecified)	-33	2	-3
COC(=O)[C@]12CCCCC=C1N(CCc1ccc(OC)c(OC)c1)C(=O)[C@H](CC(=O)N1CCC(c3ccccc3)CC1)C2	4	10	-6
COc1cccc(-c2oc3c(c2C(=O)OCCN2CCCCC2)C(O)CCC3)c1 (stereo unspecified)	-33	3	5
COC(=O)C1=CN(c2ccc(N3CCOCC3)cc2)C(N)=C(C#N)C1c1ccc(-c2ccccc2)cc1 (stereo unspecified)	14	-4	-6
CC(=O)CSc1nc2nccnc2[nH]1	-14	4	2
CC(C)C1C(=O)N(Cc2cn(Cc3ccco3)nn2)CCS(=O)(=O)N1Cc1ccc(-c2cccc(N(C)C)c2)cc1 (stereo unspecified)	17	-4	-4
N#Cc1ccc(C(C(=O)NCc2ccccc2)n2c(=O)c(-c3ccco3)nc3ccccc32)cc1 (stereo unspecified)	-22	-7	1
c1ccc(NCCSc2nc3ccccc3s2)cc1	-10	3	2
CC(=O)c1sc2c(c1OC(=O)c1ccc(Cl)cc1)c(=O)n(-c1ccccc1)c(=S)n2-c1ccccc1	0	-15	-7
O=C1CSC(=S)N1N=Cc1ccccc1O	6	10	15
CCCCC[C@@H](C)N1C[C@H](COCc2ccccc2)Oc2cc(N3CCC[C@H]3C(N)=O)ccc2S1(=O)=O	76*	4	0
CCOC1=C2CN(S(=O)(=O)c3ccc(C)cc3)C(c3ccc(C)cc3)CC2N(S(=O)(=O)c2ccc(C)cc2)C(c2ccccc2)C1 (stereo unspecified)	12	3	-28
CC(C)(C)OC(=O)Nc1ccccc1-n1nnnc1C(C(=O)c1ccc(F)cc1)N1CCOCC1 (stereo unspecified)	17	-2	2

Shown with two lines to a compound: 3 of the compounds above.
Results follow in this order: HIV Env fusion | MT1-MMP act inh | MT1-MMP act inh RFP
- c1ccc(NCCSc2nc3ccccc3s2)cc1
  -10 | 3 | 2
- COC(=O)C1=CN(c2ccc(N3CCOCC3)cc2)C(N)=C(C#N)C1c1ccc(-c2ccccc2)cc1 (stereo unspecified)
  14 | -4 | -6
- N#Cc1ccc(C(C(=O)NCc2ccccc2)n2c(=O)c(-c3ccco3)nc3ccccc32)cc1 (stereo unspecified)
  -22 | -7 | 1

The main list resumes, repeating the 3 entries before the break.
SMILES	HIV Env fusion	MT1-MMP act inh	MT1-MMP act inh RFP
CCCCC[C@@H](C)N1C[C@H](COCc2ccccc2)Oc2cc(N3CCC[C@H]3C(N)=O)ccc2S1(=O)=O	76*	4	0
CCOC1=C2CN(S(=O)(=O)c3ccc(C)cc3)C(c3ccc(C)cc3)CC2N(S(=O)(=O)c2ccc(C)cc2)C(c2ccccc2)C1 (stereo unspecified)	12	3	-28
CC(C)(C)OC(=O)Nc1ccccc1-n1nnnc1C(C(=O)c1ccc(F)cc1)N1CCOCC1 (stereo unspecified)	17	-2	2
COC(=O)[C@@]1(Sc2ccc(C)cc2)CC(=O)N(C(=O)CCc2ccccc2)[C@@H]1c1ccccc1	7	-8	-10
O=C(Nc1cccc(Br)c1)Oc1cccc2cccnc12	14	7	-1
Fc1cccc(Cl)c1C1SCc2nc3ccccc3n21 (stereo unspecified)	24	11	-10
CC(C)NC(=O)C1(C)CSCC(=O)N1Cc1cccc(C(F)(F)F)c1 (stereo unspecified)	8	6	4
CCC(C(=O)NC1CCCC1)n1c(-c2cc3ccccc3[nH]2)nc2ccccc21 (stereo unspecified)	-21	-15	-21
COC(=O)[C@@]12C[C@@H](CC(=O)NCCCCc3ccccc3)C(=O)N(Cc3ccco3)C1=CCC(C)(C)C2	36	0	-4
COc1cc(OC)cc(C2=Cc3ccccc3C(CC(C)=O)N2c2ccc(-c3cncnc3)cc2)c1 (stereo unspecified)	-11	-4	-3
O=c1c(-c2ccccc2)nc2ccccc2n1C(c1ccccn1)c1nc2ccccc2[nH]1 (stereo unspecified)	-6	-1	2
CCCCCCn1cc(CN2CC(N3CCN(CCO)CC3)CS2(=O)=O)nn1 (stereo unspecified)	-3	4	5
O=C1NC[C@H](Cc2ccccc2)N(C[C@@H]2CCCN2C[C@H](Cc2ccc(O)cc2)N2C[C@H](Cc3ccc(O)cc3)N(CCc3ccccc3)C(=O)C2=O)C1=O	11	2	6
COC(=O)C[C@H]1CC[C@@H](NC(=O)C2CC2)[C@@H](CO)O1	-11	8	7
Cc1ccc2nc(-c3ccc(Cl)cc3)c(Cc3ccccn3)n2c1	-80	4	2
CCc1ccc(C2CC3C(CN2S(=O)(=O)c2ccc(C)cc2)C(=O)CC(c2ccc(CC)cc2)N3S(=O)(=O)c2ccc(C)cc2)cc1 (stereo unspecified)	20	-1	-3
C=C1C(=O)OC2C=C(CO)C3OC3C3OC3(C)CC(OC(=O)/C(=C/C)COC(C)=O)C12 (stereo unspecified)	-93	-5	-31
CCCCCCCCN1C(=O)[C@H](CC(=O)NCCCCc2ccccc2)C[C@@]2(C(=O)OCC)CCCC=C12	69*	-14	-20
CCCCCCn1cc(CN2CC(N(C)CC)CS2(=O)=O)nn1 (stereo unspecified)	-4	3	7
C=CCNC(=O)c1ccsc1N	-11	-11	20
